Screens deposited in PubChem by ICCB-Longwood Screening Facility, Harvard Medical School.
KSHV LANA nucl: inhibitors of KSHV LANA binding to nucleosomes. FITC-LANA1-23 / chicken nucleosome fluorescence polarization; active compounds read low. z-score (concentration not given with the values). actives 0.3% (n = 51,000);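 active means both repeat wells score below -2 in polarization z-score versus plate sample wells, excluding overly bright wells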;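 further: 100 nL library stock added to about 30 µL; numbers are from one replicate; some results filed as inactive read as strong as hits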
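Assay system: purified chicken nucleosomes with FITC-labelled LANA N-terminal peptide (1-23) / Probe or stimulus: 50 nM FITC-LANA1-23 probe / Compound dosing: pin-transferred compound, 100 nL / Times: compound with peptide–nucleosome mix 10–45 min at room temperature / Technique: fluorescence polarization, 480 nm excitation, 535 nm parallel and perpendicular emission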
Ab BasE inh: blocks the Acinetobacter baumannii siderophore enzyme BasE; purified BasE, fluorescence polarization binding displacement; inhibition, % (test concentration not listed); actives 0.1% (n = 84,000); AID 485350;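 active means both replicates above 25% with normal brightness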;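 further: 0% = negative plate control signal and 100% = positive plate control signal; stock transfer was 100 nL into about 30 µL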
An asterisk follows results filed as active; & = joins results of further samples.

For CC1CCCN(C2(O)C(=O)N(C)c3ccc(Br)cc32)C1 (stereo not given) the results were KSHV LANA nucl -1.1 and Ab BasE inh 1.0.
For Cc1ccc(CNC(=O)C2CCCN(C(=O)N(C)C)C2)cc1 (stereo not given) the results were KSHV LANA nucl -0.812 and Ab BasE inh 1.6.
COc1ccc(CC(=O)NC2=NCCS2)cc1 was read as Ab BasE inh 0.1.
Screening COc1ccccc1-c1noc(CCCC(=O)NC2CCCC2)n1 returned KSHV LANA nucl -0.202 and Ab BasE inh -0.5.
`CC1CCCC(C)N1CCNC(=O)c1cn(C(C)c2ccccc2F)nn1` (stereo not given) gave KSHV LANA nucl -0.879 and Ab BasE inh -1.3.
Screening CC1CCC[S+](c2cc(O)ccc2O)C1 (stereo not given) returned KSHV LANA nucl 0.817 and Ab BasE inh 0.3.
`COc1cc(C(=O)COC(=O)c2ccccc2)cc(OC)c1OC` gave Ab BasE inh -12.1.
Screening CCCN(CCC)c1nc(N2CCCC2)nc(N2CCCC2)n1 returned KSHV LANA nucl -1.4 and Ab BasE inh -0.9.
Screening O=S1(=O)NC(=NC2CCCCCC2)c2ccccc21 returned KSHV LANA nucl -1.08 and Ab BasE inh -0.5.
COc1ccccc1/C=C/C1N=C(N)Nc2nc3ccccc3n21 (stereo not given) was read as Ab BasE inh -8.0.
`CCCCN(C)C(=O)c1ccc2c(c1)N(Cc1ccccc1F)C(=O)c1ccccc1S2=O` (stereo not given) gave KSHV LANA nucl -0.069 and Ab BasE inh -3.0.
NC(=O)c1oc2ccccc2c1NC(=O)CN1C(=O)c2ccccc2C1=O was read as KSHV LANA nucl -1.45 and Ab BasE inh 1.1.
CN(Cc1c(F)cccc1Cl)c1ncnc2ccccc12 was read as Ab BasE inh -0.4.
`O=C(/C=C/c1cnc2ccccc2n1)OCC(=O)N1CCCCCC1` gave Ab BasE inh -2.6.
For CC(C)C(=O)NCCN1C(=O)S/C(=C\c2cccs2)C1=O the results were Ab BasE inh 2.7.
Screening COc1ccc(-c2nnc(SCc3ccc(C#N)cc3)n2C(C)C)cc1 returned Ab BasE inh -3.2.
`Cc1[nH]nc2oc(=O)c(CC(=O)O)c(C)c12` gave KSHV LANA nucl -0.343 and Ab BasE inh 0.2.
O=C1CC(c2ccccc2)CC(O)=C1C=Nc1ccccc1 (stereo not given) was read as Ab BasE inh -0.6.
`CCOC(=O)C1=C(CSc2nnc(-c3ccccc3OC)n2C2CCCCC2)NC(=O)NC1C` (stereo not given) gave Ab BasE inh 14.3.
For O=C(NC(Nc1cccc(C(F)(F)F)c1)C(=O)c1ccccc1)c1cccs1 (stereo not given) the results were Ab BasE inh -2.0.
`Cc1c(CC(=O)Nc2ccc(Cl)cc2)sc2ccc(Cl)cc12` gave Ab BasE inh 1.8.
FC(F)Sc1nnc2sc3ccccc3n12 was read as Ab BasE inh 0.7.
`O=C(c1ccc(Oc2cc(Cl)cc(Cl)c2)o1)N1CCCCC1` gave KSHV LANA nucl 0.554.
Screening Cn1cc(C(O)C(F)(F)F)c2ccccc21 (stereo not given) returned KSHV LANA nucl 0.195.
For C1=C(CCNC2=NCCCCC2)CCCC1 the results were Ab BasE inh -2.9.
Screening CCO/C([O-])=N/c1c[n+](N2CCOCC2)no1 returned KSHV LANA nucl 0.287&0.326&0.801&0.703 and Ab BasE inh 0.4&-3.3.
For O=C(CCSc1nnc2ccccn12)Nc1cccc(-c2nc3ccccc3s2)c1 the results were Ab BasE inh 2.3.
For C=C1/C(=C/C=C2/CCC[C@]3(C)[C@@H]([C@H](C)CCCC(C)C)CC[C@@H]23)C[C@@H](O)C[C@@H]1O the results were KSHV LANA nucl -0.13.
`C/C(Cc1nc2ccccc2[nH]1)=N/Nc1ccccc1` gave KSHV LANA nucl -0.7 and Ab BasE inh -3.3.
`O=C(CCCN1C(=O)/C(=C\c2ccco2)SC1=S)Nc1cccnc1` gave KSHV LANA nucl 0.523 and Ab BasE inh -0.1.

5 consecutive compounds from above, for reference:
Screening CCO/C([O-])=N/c1c[n+](N2CCOCC2)no1 returned KSHV LANA nucl 0.287&0.326&0.801&0.703 and Ab BasE inh 0.4&-3.3.
For O=C(CCSc1nnc2ccccn12)Nc1cccc(-c2nc3ccccc3s2)c1 the results were Ab BasE inh 2.3.
For C=C1/C(=C/C=C2/CCC[C@]3(C)[C@@H]([C@H](C)CCCC(C)C)CC[C@@H]23)C[C@@H](O)C[C@@H]1O the results were KSHV LANA nucl -0.13.
`C/C(Cc1nc2ccccc2[nH]1)=N/Nc1ccccc1` gave KSHV LANA nucl -0.7 and Ab BasE inh -3.3.
`O=C(CCCN1C(=O)/C(=C\c2ccco2)SC1=S)Nc1cccnc1` gave KSHV LANA nucl 0.523 and Ab BasE inh -0.1.

Going on with the list.
`CCN(Cc1cc(=O)oc2ccc(OC)cc12)c1ccccc1` gave KSHV LANA nucl 2.21 and Ab BasE inh -0.3.
`CCC(=O)OCC(=O)Nc1ccc2c(c1)OCO2` gave Ab BasE inh 1.6.
Screening CN1/C(=C\C(=O)Cn2nnc3ccccc3c2=O)C(C)(C)c2ccccc21 returned Ab BasE inh -2.4.
`CC1(C)Cc2cccc(C(=O)N3CCC(C(=O)c4ccc(Cl)cc4)CC3)c2O1` gave KSHV LANA nucl -1.18.
`CNc1ccc(S(=O)(=O)c2ccc(NC)cc2)cc1` gave Ab BasE inh 1.4.
For NS(=O)(=O)c1ccc2nc(NC(=O)Cn3[nH]c(=O)c4ccccc4c3=O)sc2c1 the results were Ab BasE inh 3.7.
`CSc1n[nH]c(NC(=O)c2ccccc2Cl)c1S(=O)(=O)c1ccc(Cl)cc1` gave Ab BasE inh -0.4.
NC(=O)CSc1nc(N)c(-c2ccccc2)c(=O)[nH]1 was read as KSHV LANA nucl 0.418 and Ab BasE inh -0.4.
For CCc1cc(SCC(=O)NCCN2C(=O)CSC2=O)n2c(nc3ccccc32)c1C#N the results were Ab BasE inh 0.0.
`COC(=O)c1cc2c(nc1SCC(=O)CC#N)CCC2` gave KSHV LANA nucl 0.651 and Ab BasE inh 0.4.
Cc1ccc(/C=N/NC(=O)c2ccc(CN3CCOCC3)cc2)cc1 was read as KSHV LANA nucl -0.048 and Ab BasE inh 2.0.
`CCOC(=O)CSC1=C(C#N)C(c2ccccc2Cl)C(C(=O)OC)C(=O)N1` (stereo not given) gave KSHV LANA nucl 0.409 and Ab BasE inh 2.1.
For CCCCn1c(SCC(=O)N2CCCCC2)nc2ccccc2c1=O the results were KSHV LANA nucl -1.28 and Ab BasE inh 0.9.
Screening COc1ccccc1CN1CCC(CNS(=O)(=O)c2ccc3c(c2)CCCC(=O)N3)CC1 returned Ab BasE inh 0.7.
Screening N#Cc1nncn1CN1CCC(Cc2ccccc2)CC1 returned Ab BasE inh -0.7.
Screening Cc1cc(N2CCCC2=O)cc(C)c1S(=O)(=O)NCCOc1ccccc1 returned KSHV LANA nucl 2.77 and Ab BasE inh -4.6.
Cc1nn(C)c(C)c1NC(=O)CCCC(=O)c1ccccc1 was read as KSHV LANA nucl 0.003 and Ab BasE inh -0.6.
Screening CCCCC1C(=O)NN(C2CCSC(C)(C)C2)C1=O (stereo not given) returned Ab BasE inh -0.9.
Screening CC(NC(=O)Cc1ccccc1)c1ccccc1 (stereo not given) returned KSHV LANA nucl 0.564 and Ab BasE inh -0.8.
FC(F)(F)c1cc(/C=C\c2noc(-c3ccccc3CN3CCCC3)n2)cc(C(F)(F)F)c1 was read as KSHV LANA nucl -0.0875.
Screening C=CCN1C(=O)/C(=C\c2cccs2)SC1=S returned Ab BasE inh 1.0.
Cc1cccc(NC(=O)CCCN2C(=O)C(c3ccccc3)Oc3cccnc32)c1C (stereo not given) was read as KSHV LANA nucl 0.333 and Ab BasE inh 0.2.
Screening CCC1CSC(Nc2ccc(C)c(Cl)c2)=N1 (stereo not given) returned KSHV LANA nucl -0.878 and Ab BasE inh 4.1.
`Cc1ccc(C(=O)Nc2ccnn2C(C)C)cc1` gave Ab BasE inh 1.6.
O=C(CSc1ncc(C(F)(F)F)cc1Cl)N1CCC(c2nc3ccccc3o2)CC1 was read as Ab BasE inh -0.6.
Screening COC(=O)c1ccc(COC(=O)/C=C/c2ccc3c(c2)OCO3)o1 returned Ab BasE inh -0.9.
Screening CCc1ccc(-c2nn(-c3ccccc3)cc2/C=C(/C#N)C(N)=O)cc1 returned KSHV LANA nucl -0.519 and Ab BasE inh 0.1.
COc1ccc(-c2nnc(SCC(=O)c3cc(C)n(CC(F)(F)F)c3C)o2)cc1 was read as Ab BasE inh 0.7.
`O=c1oc2ccccc2c2c1ncn2CCN1CCCC1` gave Ab BasE inh 2.0.
`CCc1nc2n(n1)C(O)c1cc(N)ccc1S2` (stereo not given) gave KSHV LANA nucl 3.16 and Ab BasE inh -3.0.
CN(CC(=O)Nc1ccc(N2CCOCC2)cc1)C(=O)c1ccc(OC(F)F)cc1 was read as Ab BasE inh 0.5.
For O=C1OC(C(=O)O)Cc2ccccc21 (stereo not given) the results were KSHV LANA nucl -0.721 and Ab BasE inh 1.0.
For Cc1noc(C(F)(F)F)c1-c1nnc(-c2cccc(C(F)(F)F)c2)o1 the results were Ab BasE inh 1.1.
S=C(NC1CC1)N1CCc2ccccc2C1 was read as KSHV LANA nucl -0.181 and Ab BasE inh -1.8.
For S=C(Nc1cccnc1)NC1CCCC1 the results were KSHV LANA nucl -0.645 and Ab BasE inh 5.2.
For CCN(CC)CCN1C(=O)C(=O)/C(=C(/O)c2ccc(OC)cc2C)C1c1ccc(F)cc1 (stereo not given) the results were KSHV LANA nucl 0.118 and Ab BasE inh -3.6.
Screening COC(=O)c1ccc(COc2ccccc2C(N)=O)cc1 returned Ab BasE inh 1.2.
Screening CCOC(=O)c1[nH]c(C)c(C(=O)OCc2c(C)noc2C)c1C returned Ab BasE inh 0.1.
`O=C(Cn1c(-c2ccccc2)noc1=O)Nc1cccc(Cl)c1Cl` gave KSHV LANA nucl 0.0125 and Ab BasE inh -1.4.
Cc1ccc(S(=O)(=O)N2CCCCC2C)cc1 (stereo not given) was read as Ab BasE inh 2.6.
CCOC(=O)c1ccc(Nc2c(C(=O)OCC)cnc3ccccc23)cc1 was read as Ab BasE inh -3.6.
Screening CCN(CC)C(=O)CSc1nc(C)cc(=O)[nH]1 returned KSHV LANA nucl 0.846 and Ab BasE inh -2.9.
Screening COc1ccc(S(=O)(=O)N2CCCCC2C)cc1 (stereo not given) returned Ab BasE inh -0.2.
For CC1(C)Cc2nc3sc4c(N5CCOCC5)ncnc4c3cc2CO1 the results were KSHV LANA nucl -0.478 and Ab BasE inh 0.0.
COc1ccc(/C=C2\OC(=S)N(C)C2=O)cc1 was read as Ab BasE inh -1.7.

Reprinted at random: 4 compounds from above, in no set order.
Cc1ccc(S(=O)(=O)N2CCCCC2C)cc1 (stereo not given) was read as Ab BasE inh 2.6.
CCOC(=O)c1ccc(Nc2c(C(=O)OCC)cnc3ccccc23)cc1 was read as Ab BasE inh -3.6.
COc1ccc(/C=C2\OC(=S)N(C)C2=O)cc1 was read as Ab BasE inh -1.7.
S=C(NC1CC1)N1CCc2ccccc2C1 was read as KSHV LANA nucl -0.181 and Ab BasE inh -1.8.

Later entries.
For COc1ccc(S(=O)(=O)N2CCC(NC(=O)NCCN3CCCCC3)CC2)cc1 the results were KSHV LANA nucl -0.258 and Ab BasE inh 1.9.
For Cc1cc(OC(=O)/C=C/c2ccco2)ccc1Cl the results were Ab BasE inh 1.4.
For CN(Cc1ccccc1)C(=O)c1cc2c(=O)n3ccccc3nc2n1C the results were KSHV LANA nucl 1.42 and Ab BasE inh -4.1.
COc1ccc(C(=O)NCCS(=O)(=O)N2CCN(C(=O)c3ccco3)CC2)cc1 was read as KSHV LANA nucl 0.903 and Ab BasE inh 0.6.
For COc1cccc(-c2noc(N3CCC4(CC3)OCCO4)n2)c1 the results were KSHV LANA nucl -0.398 and Ab BasE inh -0.7.
`Cc1c(C)c(C)c(S(=O)(=O)N=C(N)N)c(C)c1C` gave Ab BasE inh 0.3.
For CC1CCN(S(=O)(=O)c2ccc(C(=O)Nc3ccc4c(c3)C(=O)NC4=O)cc2)CC1 the results were KSHV LANA nucl 0.849 and Ab BasE inh 2.9.
O=C(O)COCC(=O)Nc1cccc(C(=O)O)c1 was read as Ab BasE inh 3.1.
`Cc1cc(C(=O)CSc2nnc(-c3ccco3)o2)c(C)n1-c1nccs1` gave Ab BasE inh 0.3.
COc1cccc(CNC(=O)C(C)n2sc3ccccc3c2=O)c1 (stereo not given) was read as KSHV LANA nucl -1.16 and Ab BasE inh 0.6.
CC(CCc1ccccc1)N1CCN(c2ccccc2F)CC1 (stereo not given) was read as KSHV LANA nucl -0.682 and Ab BasE inh 4.1.
`Cc1csc2c(C#N)c(=O)c3c(n12)CCC3` gave Ab BasE inh 3.1.
For COC(=O)c1cc2c(C(F)(F)F)nn(C)c2s1 the results were Ab BasE inh 0.8.
Screening O=C(OCc1nc2ccccc2s1)c1ccc2c(c1)C(=O)N(Cc1ccco1)C2=O returned Ab BasE inh 0.5.
For NNC(=O)c1ccco1 the results were Ab BasE inh 0.9.
Screening CCS(=O)(=O)c1nc(S(=O)(=O)c2ccc(C)cc2)c(NCc2ccco2)s1 returned KSHV LANA nucl 1.22 and Ab BasE inh -4.5.
For O=S(=O)(Cc1ccco1)Cc1nc(-c2ccc(Cl)cc2)cs1 the results were KSHV LANA nucl -0.08 and Ab BasE inh -0.1.
For CN(CC(=O)Nc1ccc(F)c(F)c1F)C(=O)c1ccc(N2CCCC2=O)cc1 the results were Ab BasE inh -0.2.
Cc1cc(C)c2c(N)c(S(=O)(=O)c3ccccc3)sc2n1 was read as KSHV LANA nucl 0.587 and Ab BasE inh -3.1.

Not all compounds are listed. The share of hits here may be higher or lower than overall.
